LASV entry inh: Lassa virus entry inhibition; 300,000 compounds, 1.2% hits; Lassa virus pseudotype entry inhibition, cell reporter; control for the full effect not named in the record; Potency, µM (top dose mostly 37.9 µM), without a hit: at the highest dose activity change, negative = inhibition, hits mostly inhibitors; active means well fitted inhibition curve with a large enough effect; inconclusive means small, poorly fitted or top-dose-only effect, or effect the other way; inactive means flat fitted curve, though single readings scatter; tested in HEK293 cells; note: % is set by controls: 0 for no effect and ±100 for the full control effect; nearly all actives have a fitted effect of over 50% in size; luciferase read-out
Cruzain noTriton: inhibitors of Trypanosoma cruzi cruzain without detergent | purified cruzain, Z-FR-AMC fluorescence, no detergent | 200,000 compounds, 2.3% hits | Potency, µM, without a hit: max response, negative = inhibition, usual class: inhibitors | P25779;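 note: plate controls were enzyme without inhibitor for no effect and buffer without enzyme for full effect; nearly all actives have a fitted effect of over 40% in size; top concentration of the series not given in the record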
Target sequence (P25779 123-467 limits assumed): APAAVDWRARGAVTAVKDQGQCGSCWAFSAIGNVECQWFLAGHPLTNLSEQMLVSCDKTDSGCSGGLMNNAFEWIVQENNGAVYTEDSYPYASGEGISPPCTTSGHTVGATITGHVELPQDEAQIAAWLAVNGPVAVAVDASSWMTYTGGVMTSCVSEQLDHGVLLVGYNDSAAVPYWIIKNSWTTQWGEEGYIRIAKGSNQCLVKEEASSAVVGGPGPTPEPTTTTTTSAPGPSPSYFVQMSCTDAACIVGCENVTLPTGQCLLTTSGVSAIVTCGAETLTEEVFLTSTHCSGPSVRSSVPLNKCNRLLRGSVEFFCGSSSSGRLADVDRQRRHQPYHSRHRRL
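Purified cruzain at 1.5 nM, pre-incubated 15 min with compound at room temperature in 100 mM sodium acetate pH 5.5, 5 mM DTT, 0.00005% Triton X-100. Reaction started with 2 uM Z-FR-AMC; AMC fluorescence increase over 60 s gives rate.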
MARV entry inh: blocks Marburg virus binding to or entry into cells; Potency, µM (highest dose often 37.8 µM), without a hit: top-dose activity change, negative = inhibition, usual class: inhibitors; Marburg virus pseudotyped entry inhibition, cell reporter; control for the full effect not named in the record; about a third of the inactives were read at about 46 µM; 300,000 compounds, 1.8% hits; active = well fitted inhibition curve with a large enough effect; inconclusive = small, poorly fitted or top-dose-only effect, or effect the other way; inactive = flat fitted curve, though single readings scatter; tested in HEK293 cells; about a fifth of its hits are not listed in these tables; note: % is set by controls: 0 for no effect and ±100 for the full control effect; luciferase read-out
SARS PLpro yeast: SARS-CoV PLP inhibition in yeast; S. cerevisiae expressing SARS-CoV PLpro, growth rescue; control for the full effect not named in the record; Potency, µM (titrated, usually from 32.9 µM), for inactives: at the highest dose activity, positive = growth rescue; 330,000 compounds, 0.19% hits; active means well fitted rising curve with a large enough effect; inconclusive means small, poorly fitted or top-dose-only effect; inactive means no such curve, though single readings can be large or run the other way; note: 0% is about no effect; nearly all actives have a fitted effect of over 55% in size; growth read by luminescence after 48 h
NS1 function inh: blocks influenza NS1 protein function | AID 2326 | Potency, µM (titrated, usually from 46.1 µM), inactives show at the highest dose activity, positive = more growth | S. cerevisiae slowed by influenza A NS1, growth recovery by OD600 | 270,000 compounds, 0.4% hits; active means well fitted rising curve with a large enough effect; inconclusive means small, poorly fitted or top-dose-only effect; inactive means no such curve, though single readings can be large or run the other way; note: nearly all actives have a fitted effect of over 50% in size
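In this qHTS, NS1 from influenza A is expressed in budding yeast, where it slows growth. Cells are switched from glucose to 2% galactose medium (pH 6.0, -URA), treated with compound, and growth recovery is read at OD600.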
Cruzain inh Det: inhibitors of Trypanosoma cruzi cruzain with detergent. AID 1478. Potency, µM, for inactives: max response, negative = inhibition, actives largely listed as inhibitors. purified cruzain, Z-FR-AMC fluorescence, 0.01% Triton. 200,000 compounds, 0.43% hits;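 note: plate controls were neutral wells for no effect and buffer without enzyme for full effect; nearly all actives have a fitted effect of over 40% in size; top concentration of the series not given in the record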
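Sodium acetate buffer (100 mM, pH 5.5) containing 5 mM DTT and 0.01% Triton X-100 hosted 1.5 nM cruzain and test compound for 15 min at room temperature. Cleavage of 2 uM Z-FR-AMC was then tracked by fluorescence.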
RE007 growth inh: less growth of the S. pombe RE007 Vpr strain | S. pombe RE007 Vpr strain, BacTiter-Glo ATP luminescence, 24 h; control for the full effect not named in the record | Potency, µM (series often up to 92.2 µM), for the others: at the top dose activity change, negative = less growth | 360,000 compounds, 0.21% hits | AID 651644; active = well fitted falling curve with a large enough effect; inconclusive = small, poorly fitted or top-dose-only effect; inactive = no such curve, though single readings can be large or run the other way;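 note: % is set by controls: 0 for no effect and ±100 for the full control effect; nearly all actives have a fitted effect of over 50% in size; the assay follows cell death caused by Vpr and the record does not say whether a fall means rescue or toxicity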
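Fission yeast RE007 carrying one integrated HIV-1 vpr copy, seeded at OD 0.01 in PMG+AL medium with 23 nL pinned compound. Grown 24 h at 30 degrees; viability read by BacTiter-Glo luminescence after 5 min.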
2A StopGo: lowers the luciferase signal of an FMDV 2A StopGo reporter. human cells with a luciferase reporter of 2A StopGo recoding; control for the full effect not named in the record. Potency, µM (top dose mostly 57.9 µM), inactives show at the highest dose signal change, negative = less light. 410,000 compounds, 1.2% hits. AID 1159524; active = well fitted falling curve with a large enough effect; inconclusive = small, poorly fitted or top-dose-only effect; inactive = no such curve, though single readings can be large or run the other way; tested in HEK293T cells; note: % is set by controls: 0 for no effect and ±100 for the full control effect; nearly all actives have a fitted effect of over 45% in size; luciferase light after 4 h
* hit, by the source's call; ? = inconclusive; . = no result given; & = joins results of further samples; [ ] = dose if it differs, or a comment. Unless noted, calls come from the whole dose curve; as a rule, active = well fitted curve in the direction sought with a large enough effect; inconclusive = small, poorly fitted or top-dose-only effect, or another doubt; inactive = no such curve, though single readings can be large; an effect the other way counts as inactive or inconclusive. Potency is the fitted concentration of half-maximal effect.

Structure	2A StopGo	SARS PLpro yeast	Cruzain inh Det	MARV entry inh	LASV entry inh	NS1 function inh	RE007 growth inh	Cruzain noTriton
Cn1c(=O)cc(SCC(=O)NCC2CCCO2)c2ccc(Cl)cc21 (stereo not given)	6%	-1%	-3.2%	?	16%	-4%	-1%	5%
CC1(C)Cc2c(sc(NC(=O)c3ccccc3Cl)c2C(=O)O)CO1	12%	-1%	.	?	-14%	-3%	5%	.
O=C(COC(=O)CC12CC3CC(CC(Br)(C3)C1)C2)NC(=O)NCc1ccco1	-20%	-11%	-9.2%	8%[46.1 µM]	-6%	13%	4%	10%
NS(=O)(=O)c1ccc(NC(=O)C2C3C=CC(C3)C2C(=O)O)cc1 (stereo not given)	1%	0%	.	2%[46.1 µM]	7%	4%	3%	.
CCN1CCN(C(=O)COc2ccc(S(=O)(=O)N3CCOCC3)cc2Cl)CC1	-12%	0%	.	1%[46.1 µM]	26%	-5%	-12%	.
CCC(C(=O)NC1CCCCC1)n1c(SCc2cccc(C)c2)nc2ccncc21 (stereo not given)	7%&-24%	-16%	14µM*	?	31%[46.1 µM]	25%	-5%	?
COc1ccc(-c2csc(NC(=O)CC(C)C)n2)cc1	?	-5%	-11%	?	13µM*	-4%	-3%	-1%
O=C(Cc1cscn1)c1ccc(O)cc1O	13%	-1%	-2.7%	19%&19%	30%	6%	?	-5%
COc1ccc(NC(=S)NC23CN4CN(CN(C4)C2)C3)c(OC)c1	-1%	1%	.	?	.	.	1%	.
CN1C(=O)/C(=C2\SC(N)=NC2=O)c2ccccc21	12%	7%	4.1%	?	?	3%	25%	?
Cc1cc(=O)[nH]c(SCC(=O)Nc2ccc(C(=O)O)cc2)n1	.	10%	-1.1%	?	15%	-2%	-1%	-3%
COc1cccc(/C=N/Nc2nn3cnnc3c3ccccc23)c1O	2%	-3%	4.3%	?	-11%	13%	-1%	2%
CNC(=O)c1ccc(Nc2nnc(-c3ccc(C(N)=O)cc3)c3ccccc23)cc1	-6%	1%	.	?	9%	3%	5%	.
CC1Cc2ccccc2N1C(=O)COc1cccc(-n2cnnn2)c1 (stereo not given)	?	-18%	-1.2%	-13%	-8%	3%	7%	-27%
CC(C)C(c1nnnn1Cc1cccs1)N1CCN(C(=O)c2ccco2)CC1 (stereo not given)	-12%	1%	.	24%[46.1 µM]	10%	4%	3%	.
O=C1C(c2ccc(F)cc2)N(C2CCCCC2)C(=O)CN1C1CCCC1 (stereo not given)	0%	-2%	6.0%	-1%	-1%	-34%	-1%	3%
CC(C)C[C@H](NC(=O)NCc1ccc(Cl)cc1)C(=O)O	0%	3%	-6.3%	12%	6%	?	-6%	2%
CCOC(=O)c1ccc(NS(=O)(=O)c2cc3c4c(c2)CCN4C(=O)CC3)cc1	21%	1%	.	-7%	?	.	9%	.
C=CCOc1c(CNC2CCCC2)cc(Cl)cc1OC	-10%	-1%	.	?	?	.	4%	.
CCN(Cc1ccccc1)S(=O)(=O)c1cn(C)cn1	-3%	0%	.	.	.	14%	-13%	.
Cc1nonc1NC(=O)c1ccc(Cl)c(S(=O)(=O)N2CCCCC2)c1	?	1%	-0.7%	?	1%	-7%	15%	9%
COC(=O)COc1ccccc1C(=O)Nc1ccc(OC)cc1	-26%	0%	-1.1%	2%[46.1 µM]	7%	-11%	-21%	-4%
CO/N=C/c1cc([N+](=O)[O-])ccc1Sc1ccc(C)cc1	?	-27%	-5.1%	?	-14%	-16%	-1%	-17%
CCOC(=O)/C(=C\c1ccc(Cl)cc1)c1nc2sc(C)c(C)c2c(=O)[nH]1	10µM*	-76%	-10%	?	?	-29%	12%	-4%
Cc1ccc(C(=O)N/N=C(\CC(C)C)c2ccccc2)cc1	2%	-11%	0.2%	-20%	9%	11%	3%	-4%
COc1cccc(C2CC(c3ccc(C)cc3)Nc3nc(N)nn32)c1 (stereo not given)	-19%	-7%	-3.6%	.	.	?	-5%	-6%
Cc1nnsc1C(=O)Oc1ccc(C#N)cc1	6%	.	-2.2%	3%[46.1 µM]	-3%[46.1 µM]	.	.	-11%
COc1ccc(-n2cc(C#N)c(=O)n(Cc3ccc(F)cc3)c2=O)cc1	-15%	1%	.	-12%[46.1 µM]	?	.	5%	.
O=C(NCc1ccccc1)c1ccc2nnsc2c1	25%	-1%	.	?	8%[46.1 µM]	0%	1%	.
CCNC(=S)Nc1ccc(Cl)cc1	7%	25%	-2.6%	1%	5%	11%	8%	0%

Next records.
Structure	2A StopGo	SARS PLpro yeast	Cruzain inh Det	MARV entry inh	LASV entry inh	NS1 function inh	RE007 growth inh	Cruzain noTriton
COc1ccc(CNC(=O)CN2C(=O)NC(C)(c3ccc(C(C)(C)C)cc3)C2=O)cc1 (stereo not given)	?	-1%	.	?	-19%	6%	-14%	.
CCOc1ccccc1N(CC(=O)NC1CCCC1)C(=O)CNC(=O)c1cccs1	2%	6%	.	0%[46.1 µM]	13%	5%	3%	.
CCC(CC)NC(=O)c1ccc(Cl)cc1	-2%	24%	1.3%	?	-2%	-7%	-2%	-3%
CCCN(CCC)S(=O)(=O)c1cc(Br)cc2c1N(C(=O)CC)CC2	?	.	-1.8%	?	?	-105%	55%	?
CCc1ccccc1NC(=O)CN(C)C(=O)CSc1nn(-c2ccc(F)cc2)c(=S)s1	-5%	8%	-6.9%	?	?	8%	2%	4%
CCOC(=O)C1CCCN(CC(=O)Nc2c(C(=O)OC)[nH]c3ccc(Br)cc23)C1 (stereo not given)	-15%	-8%	-5.5%	?	?	-24%	-7%	19%
O=C(c1ccc(S(=O)(=O)c2ccc(F)cc2)c([N+](=O)[O-])c1)N1CCCCCC1	13µM*	?	4.8%	?	?	3%	0%	3%
CCN(CC)S(=O)(=O)c1cc(C(=O)Nc2cc(C)on2)ccc1Cl	-17%	6%	.	-28%[46.1 µM]	12%[46.1 µM]	2%	-3%	.
CCCCc1nc2cc(C(=O)N3CCCC(OCCC)C3)ccc2o1 (stereo not given)	-2%	-5%	.	.	.	-21%	-4%	.
NNC(=O)COc1ccc2oc3c(c2c1)CCCC3	18%	-12%	.	5%[46.1 µM]	8%	25%	-7%	.
O=C(Nc1ccsc1C(=O)O)c1ccccc1Cl	3%	0%	.	17%[46.1 µM]	19%[46.1 µM]	8%	2%	.
Cc1ccccc1NC(=O)c1cccc(N2C(=O)C3CCCCC3C2=O)c1 (stereo not given)	-2%	1%	.	7%[46.1 µM]	8%	-6%	5%	.
CCC(=O)N1CCc2cc(Br)cc(S(=O)(=O)CCC(=O)Nc3ccccc3C)c21	-17%	.	0.9%	-4%[46.1 µM]	11%[46.1 µM]	.	.	-1%
O=C(O)c1ccc([N+](=O)[O-])c(CS(=O)(=O)c2ccc(Cl)cc2)c1	-9%	2%	.	9%	12%	.	-5%	.
COCCNc1ccc([N+](=O)[O-])cc1C(=O)NC1CCCc2ccccc21 (stereo not given)	-13%	-5%	.	?	6%	-4%	-13%	.
O=S(=O)(NCC(c1cccnc1)N1CCN(Cc2ccccc2)CC1)c1ccccc1 (stereo not given)	-11%	19%	-2.8%	.	.	-4%	21%	-8%
CC(C)c1ccc(OCC(=O)NNC(=S)NC(=O)c2cccs2)c(Br)c1	-19%	-3%	.	-1%	-3%	-6%	0%	.
CCN(CC)S(=O)(=O)c1ccc(NS(=O)(=O)CC23CCC(CC2=O)C3(C)C)cc1 (stereo not given)	0%	1%	-2.7%	6%	2%	-6%	2%	-10%
C(=N\c1c(-c2ccccc2)nc2n1CCS2)/c1ccccc1	9%	3%	-25%	-16%	-4%	-27%	-17%	-7%
CCN(CC(=O)Nc1c(C(=O)OC)[nH]c2ccccc12)c1ccc2c(c1)OCO2	-28%	-7%	-4.7%	6.5µM*	-9%	17%	23%	-6%
COC(=O)/C=C/C(=O)N1CCN(c2ccccc2)CC1	-19%	-11%	-1.8%	-3%	-4%	-13%	-14%	-2%
COc1ccc(-c2cc(C(=O)O)c(C)o2)cc1OC	13µM*	3%	1.6%	?	?	-35%	20%[3.69 µM]	-17%
CCC1CCCCN1CCCNC(=O)c1ccc(/C=C2/Sc3ccccc3NC2=O)cc1 (stereo not given)	24%	2%	.	.	.	1%	12%	.
CCN(CC)S(=O)(=O)c1ccc(N2CCN(c3ccccc3OC)CC2)c(N)c1	22µM*	2%	.	?	?	5%	-14%	.
COC(=O)CCn1c(C)cc(C(=O)COc2ccccc2C(N)=O)c1C	16µM*	-5%	.	?	-32%	.	7%	.
Cc1cc(-c2ccccc2)nc(N(C)NC(=O)c2ccc(Cl)cc2)c1S(C)(=O)=O	-15%	1%	-6.2%	-27%	?	10%	10%	4%
CC(=O)N1CCN(C(=S)NC(=O)C23CC4CC(CC(C4)C2)C3)CC1	-8%	-3%	.	.	.	0%	2%	.
COc1ccc(-n2cc([N+](=O)[O-])c(=O)c3ccc(Cl)cc32)cc1	-12%	.	.	10%[46.1 µM]	-2%	.	-5%	.
O=C(Cn1c(=O)n2ncnc2c2c3c(sc21)CCCC3)c1ccccc1	7%	-1%	3.9%	-6%	4%	9%	4%	-14%
CCOc1ccccc1NC(=O)c1sc2nc(C)nc(N3CCOCC3)c2c1C	-8%	10%	.	-2%[46.1 µM]	?	-6%	-15%	.
CCC(CC)C(=O)Nc1cccc(C(=O)Nc2nccs2)c1	-28%	-2%	3.4%	8%	1%	13%	29%[3.69 µM]	-10%
CN(C)CCCN(C(=O)c1sc2ccccc2c1Cl)c1nc2c(F)cccc2s1	0%	-21%	-11%	-1%	23%	-8%	-7%	1%
COc1ccc(OCC(=O)N2CCN(c3cccc(Cl)c3)CC2)cc1	0%	-1%	-8.1%	?	-9%	-121%	-27%	11%

The order is random; 4.7% or so of the library scored in one or more.
